Cruzain inh noDet – qHTS Assay for Promiscuous and Specific Inhibitors of Cruzain (without detergent); purified cruzain, Z-FR-AMC fluorescence, no detergent; Potency, µM, for the others: max response, negative = inhibition, hits mostly inhibitors; actives 2.3% (n = 200,000); AID 1476, 2009;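 further: plate controls were enzyme without inhibitor for no effect and buffer without enzyme for full effect; nearly all actives have a fitted effect of over 40% in size; top concentration of the series not given in the record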
Target sequence (P25779 123-467 limits assumed): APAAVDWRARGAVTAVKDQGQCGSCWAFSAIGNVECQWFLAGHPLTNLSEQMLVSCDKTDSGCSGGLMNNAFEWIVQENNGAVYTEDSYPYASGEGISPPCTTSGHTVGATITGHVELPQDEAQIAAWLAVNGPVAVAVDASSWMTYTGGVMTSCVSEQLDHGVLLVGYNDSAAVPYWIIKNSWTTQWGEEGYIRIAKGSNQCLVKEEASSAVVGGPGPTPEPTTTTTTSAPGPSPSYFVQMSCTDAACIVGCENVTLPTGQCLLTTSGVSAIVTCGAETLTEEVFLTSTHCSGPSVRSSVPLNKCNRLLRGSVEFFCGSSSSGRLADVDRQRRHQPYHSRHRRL
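Purified cruzain at 1.5 nM, pre-incubated 15 min with compound at room temperature in 100 mM sodium acetate pH 5.5, 5 mM DTT, 0.00005% Triton X-100. Reaction started with 2 uM Z-FR-AMC; AMC fluorescence increase over 60 s gives rate.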
SARS PLP yeast – qHTS of Yeast-based Assay for SARS-CoV PLP | S. cerevisiae expressing SARS-CoV PLpro, growth rescue; control for the full effect not named in the record | Potency, µM (highest dose often 32.9 µM), for inactives: at the highest dose activity, positive = growth rescue | actives 0.19% (n = 330,000); active means well fitted rising curve with a large enough effect; inconclusive means small, poorly fitted or top-dose-only effect; inactive means no such curve, though single readings can be large or run the other way; further: 0% is about no effect; nearly all actives have a fitted effect of over 55% in size; growth read by luminescence after 48 h
RE007 growth inh – qHTS Assay for Inhibitors of the HIV-1 protein Vpr; S. pombe RE007 Vpr strain, BacTiter-Glo ATP luminescence, 24 h; control for the full effect not named in the record; Potency, µM (doses to about 92.2 µM), without a hit: top-dose activity change, negative = less growth; actives 0.21% (n = 360,000); AID 651644, 2012; active = well fitted falling curve with a large enough effect; inconclusive = small, poorly fitted or top-dose-only effect; inactive = no such curve, though single readings can be large or run the other way;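 further: on the % scale 0 is the no-effect control and ±100 the full control effect; nearly all actives have a fitted effect of over 50% in size; the assay follows cell death caused by Vpr and the record does not say whether a fall means rescue or toxicity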
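Fission yeast strain RE007, carrying one chromosomally integrated HIV-1 vpr copy, was seeded at OD 0.01 in PMG+AL medium with 23 nL pinned compound. After 24 h at 30 °C and 99% humidity, viability was read by BacTiter-Glo luminescence.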
Cruzain Triton – qHTS Assay for Promiscuous and Specific Inhibitors of Cruzain (with detergent); Cruzipain (Trypanosoma cruzi), P25779; purified cruzain, Z-FR-AMC fluorescence, 0.01% Triton; Potency, µM, inactives show max response, negative = inhibition, hits mostly inhibitors; actives 0.43% (n = 200,000);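 further: plate controls were neutral wells for no effect and buffer without enzyme for full effect; nearly all actives have a fitted effect of over 40% in size; top concentration of the series not given in the record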
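Cruzain (1.5 nM) preincubated 15 min at RT with compound in 100 mM sodium acetate pH 5.5, 5 mM DTT, 0.01% Triton X-100. Reaction started with 2 uM Z-FR-AMC; AMC fluorescence (ex 360/em 450 nm) change over 60 s gave rate.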
Lassa entry inh – qHTS for Inhibitors of binding or entry into cells for Lassa Virus; Lassa virus pseudotype entry inhibition, cell reporter; control for the full effect not named in the record; Potency, µM (highest dose often 37.9 µM), for inactives: at the top dose activity change, negative = inhibition, hits mostly inhibitors; actives 1.2% (n = 300,000); AID 540256, 2011; active means well fitted inhibition curve with a large enough effect; inconclusive means small, poorly fitted or top-dose-only effect, or effect the other way; inactive means flat fitted curve, though single readings scatter; tested in HEK293 cells; further: on the % scale 0 is the no-effect control and ±100 the full control effect; nearly all actives have a fitted effect of over 50% in size; luciferase read-out
StopGo reporter – High Throughput Screening for Foot and Mouth Disease Virus Antivirals | human cells with a luciferase reporter of 2A StopGo recoding; control for the full effect not named in the record | Potency, µM (highest dose often 57.9 µM), without a hit: top-dose signal change, negative = less light | actives 1.2% (n = 410,000) | AID 1159524, 2015; active = well fitted falling curve with a large enough effect; inconclusive = small, poorly fitted or top-dose-only effect; inactive = no such curve, though single readings can be large or run the other way; tested in HEK293T cells; further: on the % scale 0 is the no-effect control and ±100 the full control effect; nearly all actives have a fitted effect of over 45% in size; luciferase light after 4 h
NS1 inh – qHTS Assay for Inhibitors of Influenza NS1 Protein Function | AID 2326, 2010 | actives 0.4% (n = 270,000) | Potency, µM (top dose mostly 46.1 µM), without a hit: at the highest dose activity, positive = more growth | S. cerevisiae slowed by influenza A NS1, growth recovery by OD600; active means well fitted rising curve with a large enough effect; inconclusive means small, poorly fitted or top-dose-only effect; inactive means no such curve, though single readings can be large or run the other way; further: nearly all actives have a fitted effect of over 50% in size
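Recovery from NS1-induced slow growth read by OD600 in budding yeast switched to galactose assay medium (pH 6.0, -URA) at 1:100 dilution. Compound 23 nl per well; the matching strain lacking NS1 serves as control.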
MARV entry inh – qHTS for inhibitors of binding or entry into cells for Marburg Virus. actives 1.8% (n = 300,000). Potency, µM (top dose mostly 37.8 µM), for inactives: at the top dose activity change, negative = inhibition, hits mostly inhibitors. AID 540276, 2011. Marburg virus pseudotyped entry inhibition, cell reporter; control for the full effect not named in the record; about a third of the inactives were read at about 46 µM; active = well fitted inhibition curve with a large enough effect; inconclusive = small, poorly fitted or top-dose-only effect, or effect the other way; inactive = flat fitted curve, though single readings scatter; tested in HEK293 cells; about a fifth of its hits are not listed in these tables; further: on the % scale 0 is the no-effect control and ±100 the full control effect; luciferase read-out
Numbers without * were called inactive; u = inconclusive; x = not tested or not shown; & = joins results of further samples; [ ] = dose if it differs, or a comment. Unless noted, the call rests on the fitted dose curve; in most records, active means well fitted curve in the direction sought with a large enough effect; inconclusive means small, poorly fitted or top-dose-only effect, or another doubt; inactive means no such curve, though single readings can be large; an effect the other way counts as inactive or inconclusive. Potency means the concentration at half of the fitted maximal effect.

SMILES	Cruzain inh noDet	SARS PLP yeast	RE007 growth inh	Cruzain Triton	Lassa entry inh	StopGo reporter	NS1 inh	MARV entry inh
Cc1ccc(CNC(=O)Cn2ccn(-c3ccc(F)cc3)c(=O)c2=O)cc1	2%	x	x	-1.3%	0%[46.1 µM]	0%	x	x
CC(C)(C)c1cn(-c2ccc(Cl)cc2)c(=S)[nH]1	6%	28%	20%	1.5%	2%	29%	-5%	u
CCCCC(=O)NNC(=S)NC(=O)c1cccc([N+](=O)[O-])c1	-23%	20%	-2%	1.1%	-3%	9%	-19%	-21%
O/N=C(\c1ccccn1)C1CC1c1ccccc1 (stereo unspecified)	x	24%	23%	x	u	17%	x	6%[46.1 µM]
CCCCN1C(=O)c2[nH]nc(-c3ccccc3O)c2C1c1ccc(OCc2ccccc2)cc1 (stereo unspecified)	u	x	x	-2.0%	x	0%	x	u
CN(C)CCNC(=S)Nc1ccc(Cl)cc1	4%	-3%	-12%	5.5%	14%	25%	0%	22%
COCC(=O)N(Cc1cc2cc(C)ccc2[nH]c1=O)c1cccc(C)c1C	x	5%	-8%	x	5%[46.1 µM]	-9%	26%	u
COc1cc(OC)nc(Oc2ccc(NC(C)=O)cc2)n1	x	-1%	16%	x	-3%	6%	3%	-12%[46.1 µM]
Cc1cccc2cc(C#N)c(NCCNC(=S)NCCCN3CCOCC3)nc12	-3%	-1%	5%	-7.9%	-9%	x	22%	u
CCN1CCN(C(=O)c2ccc(CNS(=O)(=O)c3cccc(OC)c3)cc2)CC1	x	1%	-2%	x	0%	-6%	15%	-1%
CN(C)c1ccc(C2CC(c3cccc(NS(C)(=O)=O)c3)=NN2C(=O)c2ccccc2)cc1 (stereo unspecified)	x	0%	-6%	x	u	-6%	3%	u
CCOC(=O)CNC(=O)CSP(=S)(OCC)OCC	2%	12%	1%[3.69 µM]	4.3%	-4%	7%	8%	8%

Gathered by group, the compounds so far containing a Cl atom
SMILES	Cruzain inh noDet	SARS PLP yeast	RE007 growth inh	Cruzain Triton	Lassa entry inh	StopGo reporter	NS1 inh	MARV entry inh
CC(C)(C)c1cn(-c2ccc(Cl)cc2)c(=S)[nH]1	6%	28%	20%	1.5%	2%	29%	-5%	u
CN(C)CCNC(=S)Nc1ccc(Cl)cc1	4%	-3%	-12%	5.5%	14%	25%	0%	22%

Additional results.
SMILES	Cruzain inh noDet	SARS PLP yeast	RE007 growth inh	Cruzain Triton	Lassa entry inh	StopGo reporter	NS1 inh	MARV entry inh
Cc1ccc(Oc2c(C(F)(F)F)oc3c(CN4CCCCC4)c(O)ccc3c2=O)cc1	2%	x	x	-4.4%	-2%[46.1 µM]	15%	x	-20%[46.1 µM]
CC(C)N1C(=O)NC2(c3ccccc3)N(C)C(=O)N(C)C12c1ccccc1 (stereo unspecified)	-2%	22%	6%	1.3%	-7%	-19%	-5%	-18%
Cc1ccc(C(CNC(=O)c2ccco2)N2CCN(C)CC2)cc1 (stereo unspecified)	x	-6%	-6%	x	23%	13%	x	30%
Cc1c(Cl)cccc1-n1c(SCC(=O)NCc2ccccc2)nc2n[nH]c(C)c2c1=N	7%	x	x	-1.4%	-27%[46.1 µM]	-21%	x	x
O=C(NC(c1cccnc1)C(F)(F)F)c1cc(COc2ccc3c(c2)CCCC3)on1 (stereo unspecified)	x	-9%	3%	x	x	0%	-36%	x
O=S(=O)(NCCc1csc(-c2ccc(F)cc2)n1)c1ccc(F)cc1F	3%	x	x	-11%	-13%[46.1 µM]	0%	x	x
Cc1cc(C)c(OCC(=O)OCC(=O)N2c3ccccc3CC2C)c(C)c1 (stereo unspecified)	x	-2%	12%	x	-9%	0%	x	-18%[46.1 µM]
CCCNc1nc(C)cc(-c2cc(-c3ccccc3)on2)n1	x	1%	-13%	x	x	10%	-7%	x
COc1ccc(-c2[nH]ncc2CN(C)Cc2cccnc2)c(F)c1	x	-1%	24%	x	-1%	-6%	4%	0%
Cc1ccc2nc(N3CCC(C(=O)N4CCN(c5cccc(C)c5C)CC4)CC3)[nH]c2c1	3%	x	x	-1.5%	u	u	x	x
COC(=O)Nc1ccc(S(=O)(=O)Nc2ccccc2F)cc1	27%	-2%	6%	-1.3%	u	11%	6%	-3%
S=c1nc(-c2ccccc2)n(CCCN2CCOCC2)c2c1CCCC2	-17%	3%	-1%	-3.9%	29%	x	-6%	6%
CC(=O)N1CCN=C1SCc1cccc(F)c1	x	-2%	-18%	x	x	-10%	-1%	x
COc1ccc(CNC(=O)CN(Cc2ccc(Cl)cc2)S(=O)(=O)c2ccccc2)cc1	6%	-6%	10%	-3.2%	u	28µM*	-14%	u
CC(=O)CSc1nc(N)c(C#N)c(-c2cccs2)c1C#N	-9%	11%	-1%	-4.0%	u	u	-3%	u
O=C(NNC(=S)NC1CCCCC1)c1sc2ccccc2c1Cl	0%	u	1%	5.3%	-9%	u	-23%	1%
Cc1ccc(C(C(=O)NC2CCCCC2)N(Cc2ccco2)C(=O)Cc2c[nH]c3ccccc23)o1 (stereo unspecified)	6%	-6%	-14%	-6.8%	u	-16%	11%	u
FC(F)(F)c1cccc(NC(=S)N2CCN(c3cccc(C(F)(F)F)c3)CC2)c1	-9%	5%	2%	-3.2%	u	-11%	u	u
COc1ccc(-c2nc(CSCC(=O)NCc3ccc4c(c3)OCO4)c(C)o2)cc1	3%	2%	-1%	-1.5%	x	-6%	-12%	-4%
COc1cccc(CNC(=O)c2cccc(S(=O)(=O)N3CCN(c4ccc(F)cc4)CC3)c2)c1	x	-4%	1%	x	u	u	x	-27%
O=C(Cc1ccccc1)Nc1nnc(-c2cccc([N+](=O)[O-])c2)s1	16µM*	24%	15%	-1.4%	10%	7%	-2%	4%
Fc1ccc(-c2onc3ccc(C4OCCO4)cc23)cc1	x	0%	2%	x	3%	8%	x	12%[46.1 µM]
COc1ccccc1C(=O)C1CCCN(C(=O)Nc2ccccc2F)C1 (stereo unspecified)	x	-2%	-8%	x	-9%[46.1 µM]	9%	-8%	u
CCOC(=O)c1c(NC(=O)c2cc(Cl)ccc2Cl)sc2c1CCCC2	-7%	x	x	-1.2%	19%[46.1 µM]	0%	x	x

Some of these compounds in order of number of heavy atoms, lowest first:
SMILES	Cruzain inh noDet	SARS PLP yeast	RE007 growth inh	Cruzain Triton	Lassa entry inh	StopGo reporter	NS1 inh	MARV entry inh
CC(=O)N1CCN=C1SCc1cccc(F)c1	x	-2%	-18%	x	x	-10%	-1%	x
CCOC(=O)c1c(NC(=O)c2cc(Cl)ccc2Cl)sc2c1CCCC2	-7%	x	x	-1.2%	19%[46.1 µM]	0%	x	x
FC(F)(F)c1cccc(NC(=S)N2CCN(c3cccc(C(F)(F)F)c3)CC2)c1	-9%	5%	2%	-3.2%	u	-11%	u	u

Next section
SMILES	Cruzain inh noDet	SARS PLP yeast	RE007 growth inh	Cruzain Triton	Lassa entry inh	StopGo reporter	NS1 inh	MARV entry inh
Cc1ccc(N(CC(=O)Nc2cc(C)cc(C)c2)S(=O)(=O)c2cccc3nonc23)cc1	u	0%	5%	-5.5%&2.4%	0%[46.1 µM]	0%	-2%	-5%[46.1 µM]
Cc1ccc(Cn2cnc3nc4c(cc3c2=O)CC(C)CC4)cc1 (stereo unspecified)	-4%	x	x	-5.8%	20%[46.1 µM]	82%[activator]	x	x
Cc1nn(C(=O)COc2ccc(Cl)cc2)c(C)c1Sc1ccccc1	8%	x	x	-1.4%	2%[46.1 µM]	-13%	x	26%[46.1 µM]
CCc1ccc(/C=C2\CN(CC)Cc3c2nc2ccccc2c3C(=O)O)cc1	u	1%	4%	-10%	18%	-10%	3.5µM*	22%
COc1cc(OC)cc(-c2nc(-c3cccc(C)c3)no2)c1	4%	x	x	-0.5%	12%[46.1 µM]	40%[activator]	x	u
COc1ccc(C2=Nn3c(nnc3-c3ccco3)SC2)cc1	-18%	-10%	-1%	-3.6%	-22%	-21%	-15%	u
Cc1ccccc1N1CC(C(=O)Nc2ccc(S(=O)(=O)N3CCCC3)cc2)CC1=O (stereo unspecified)	x	4%	-27%	x	-11%	-14%	x	1%
O=c1c(Cl)c(O)c2cccc3c4ccccc4n1c23	u	-96%	3%	-25%	1%	0%	-30%	7%
CN(CC1COc2ccccc2O1)C(=O)c1cc(COc2c(F)cccc2F)on1 (stereo unspecified)	x	-10%	-21%	x	-22%	-12%	-17%	1%
CCC(C)(C)NC(=O)C(OC(=O)c1ccco1)c1ccccc1F (stereo unspecified)	x	-1%	-2%	x	1%	-1%	18%	-21%
CN(Cc1ccc(Br)cc1)CC(O)COc1cccc(Br)c1 (stereo unspecified)	x	-7%	2%	x	18%	-11%	-29%	u
COc1ccc(NC(=S)NCCC2=CCCCC2)cc1OC	x	0%	-4%	x	0%[46.1 µM]	0%	7%	22%[46.1 µM]
Cn1c(=O)c2[nH]c(N=NNc3ccccc3F)nc2n(C)c1=O	x	0%	0%	x	7%	34%[activator]	-4%	4%[46.1 µM]
O=C(NCCCN1CCOCC1)c1csc2c1CCCC2	3%	-12%	4%	6.6%	16%	x	-3%	0%
Cc1cc(C)cc(NC(=S)N2CCC(NC(=O)C3CCCCC3)CC2)c1	x	8%	-9%	x	x	-5%	u	-18%[46.1 µM]
O=C(CCN1C(=O)/C(=C/c2cccs2)SC1=S)Nc1ccccc1O	x	0%	-14%	x	0%	u	-9%	-23%[46.1 µM]
COc1ccc(OC)c(C2C(C(=O)c3ccco3)=C(O)C(=O)N2CC2CCCO2)c1 (stereo unspecified)	x	-5%	26%	x	12%	24%	1%	-2%[46.1 µM]
COc1cccc(NC(=O)CCc2nc(-c3ccccc3F)no2)c1	5%	-10%	-2%	0.5%	16%	0%	-19%	5%
CCc1cccc(C)c1NC(=O)N(C)C1CCCCC1	x	0%	-3%	x	3%	2%	0%	-15%[46.1 µM]
